VDR inh: vitamin D3 receptor (human) inhibition | P11473 | VDR-SRC2-3 peptide fluorescence polarization, 2 h | Potency, µM, inactives show max response, negative = inhibition, most hits filed as inhibitors | 0.93% of 400,000 active; active = well fitted inhibition curve with a large enough effect; inconclusive = small, poorly fitted or top-dose-only effect, or another doubt; inactive = no such curve, though single readings can be large or run the other way; also: series mostly up to about 120 µM
Target sequence (P11473 whole entry, looked up): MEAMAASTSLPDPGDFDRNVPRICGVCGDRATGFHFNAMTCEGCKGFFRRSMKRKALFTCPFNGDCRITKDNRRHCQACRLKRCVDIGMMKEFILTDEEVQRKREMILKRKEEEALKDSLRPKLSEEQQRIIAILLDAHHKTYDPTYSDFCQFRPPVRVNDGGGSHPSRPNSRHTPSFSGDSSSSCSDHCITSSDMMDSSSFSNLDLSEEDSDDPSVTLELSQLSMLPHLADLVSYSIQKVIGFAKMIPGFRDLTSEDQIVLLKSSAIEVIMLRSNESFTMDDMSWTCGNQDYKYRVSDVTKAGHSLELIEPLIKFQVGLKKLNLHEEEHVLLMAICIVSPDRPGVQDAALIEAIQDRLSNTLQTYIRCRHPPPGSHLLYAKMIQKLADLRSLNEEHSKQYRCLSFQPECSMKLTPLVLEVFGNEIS
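Inhibition of the VDR/SRC2-3 peptide interaction is quantified by fluorescence polarization. Compounds (23 nl, pintool) incubate with the reagents for 2 hours at ambient room temperature.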
* = called active by the depositor; ? = inconclusive; & = joins results of further samples; [ ] = another dose, or the depositor's remark. % is scaled to controls: 0 for no effect and ±100 for the full control effect; potency is read from the fitted curve at half-maximal effect. This is a subset; count on the stated rates, not on these rows.

VDR inh | Structure
1.7% | CN(CCNC(=O)CN1CCN(Cc2ccccc2Cl)C1=O)Cc1ccccc1
4.8% | CCOC(=O)C(C)NC(=O)c1c(C)oc2ncn(CC(C)C)c(=O)c12 (stereo not drawn)
-0.5% | COc1ccccc1N1CCN(S(=O)(=O)c2ccccc2F)CC1
5.7% | O=C(Cn1nnc(-c2ccc3c(c2)OCO3)n1)N1CCOCC1
5.6% | Cc1ccc(S(=O)(=O)N(C)C)cc1-n1c(SCC(=O)Nc2ccc(F)cc2)nc2ccccc2c1=O
-4.7% | CC(C)(C)c1ccc(OCCCC(=O)N2CCOCC2)cc1
-16.7% | CCc1c(C(C)S(=O)(=O)c2ccc(C)cc2)[nH]c(=O)n1-c1ccc(OC(F)(F)F)cc1 (stereo not drawn)
? | Cc1ccc(/C(O)=C2\C(=O)C(=O)N(C)C2c2ccc([N+](=O)[O-])cc2)cc1 (stereo not drawn)
-8.4% | CCOC(=O)C(C(C)=O)=C1SC2CS(=O)(=O)CC2S1 (stereo not drawn)
-20.2% | COc1ccc(-c2oc3ccccc3c2C(=O)OCc2ccccc2)cc1
1.0% | N=C1c2ccccc2CN1NC(=O)c1cccc(S(=O)(=O)N2CCOCC2)c1
3.2% | COc1ccc(CN2CC(=O)N3[C@H]4c5ccc(OC)cc5OC[C@@H]4[C@H](c4ccccc4)[C@]3(C)C2=O)cc1
8.1% | Brc1ccc2c(c1)NC(c1cccnc1)=NC(c1ccccc1)=N2
-1.1% | CCOC(=O)c1cccc(NC(=O)c2cc(-c3ccc(Cl)s3)nc3ccccc23)c1
-9.6% | CCCn1c(NC(=O)c2ccc(Cl)c(S(=O)(=O)N3CCCC3)c2)nc2ccccc21
12.6% | Cc1ccc(-c2nnc(SCC(=O)Nc3ccc(S(=O)(=O)N4CCCCCC4)cc3)o2)cc1
16.8% | CCOc1ccc(NS(=O)(=O)c2ccc(C(=O)NCC3(N(C)C)CCCCC3)cc2)cc1
-16.4% | COc1ccccc1CNCCS(=O)(=O)NN1CCOCC1
-6.9% | O=C(O)CCCCNCc1ccccc1
-4.6% | COc1ccc(-c2nc(CN3CCC(C(=O)NCCCOC(C)C)CC3)c(C)o2)cc1OC
21.9% | CC(=O)C1CCC2C3CC(C)=C4CC(O)CCC4(C)C3CCC12C (stereo not drawn)
-20.2% | CS(=O)(=O)N1CCN(C2C3CC4CC(C3)CC2C4)CC1 (stereo not drawn)
-16.2% | COc1cccc(CNC(=O)C2CCN(C(=O)c3sccc3-n3cccc3)CC2)c1
8.5% | CC(C)(C)c1ccc(C2C(C#N)=C(N)Oc3n[nH]c(-c4cccnc4)c32)cc1 (stereo not drawn)
-9.6% | O=C(CSc1nnc(Cc2ccccc2)o1)Nc1ccc(Br)cn1
1.9% | CC(C)C12CN3CC(C(C)C)(CN(C1)C31C(=O)Nc3ccccc31)C2=O (stereo not drawn)
-12.9% | CCOC(=O)CC1C(=O)NCCN1S(=O)(=O)c1ccc(OC)cc1 (stereo not drawn)
13.8% | Cc1cc(-c2nnc(CCC(=O)NC(C)(C)C34CC5CC(CC(C5)C3)C4)o2)no1
-2.4% | CCN(CC)S(=O)(=O)c1ccc(C(=O)Nc2cc(S(=O)(=O)N3CCOCC3)ccc2N2CCN(C)CC2)cc1
0.5% | COc1ccc(NC(=S)NC(=O)/C=C/c2ccco2)cc1
-1.2% | CCOC(=O)n1c(=O)n(Cc2ccc(Cl)c(Cl)c2)c2ccccc21
1.5% | Cc1ccc(/C=N/Nc2nc3ccccc3s2)o1
15.0% | Cc1cc(C)c(S(=O)(=O)N(C)Cc2cnn(C)c2)c(C)c1
3.3% | COc1ccc(S(=O)(=O)n2nc(C)c(S(=O)(=O)N3CCC(C)CC3)c2C)cc1C
11.8% | O=C(NCc1cccnc1)c1c(F)c(F)c(F)c(F)c1F
8.5% | Cc1ccc(N2C(=O)CC(Sc3ccccc3C(=O)O)C2=O)cc1C (stereo not drawn)
? | O=C(O)c1ccccc1C(=O)Nc1n[nH]c(=S)s1
5.2% | CC(=O)c1cccc(NC(=O)c2ccc(-n3c(C)nnc3C)cc2)c1
-3.6% | CCc1ccc(NC(=O)c2[nH]c(C)c(C(C)=O)c2C)cc1
-1.8% | CC(=O)Nc1ccc(S(=O)(=O)NCC(=O)OCC(=O)N2CCCCCC2)cc1
5.9% | Nc1nc(SCC(=O)Nc2ccc3c(c2)CCC3)n[nH]1
1.1% | COc1cccc(N2C(=O)CC(NNc3nc4ccccc4s3)C2=O)c1 (stereo not drawn)
? | Clc1ccccc1-c1nnc2sc(-c3ccc4c(c3)OCO4)nn12
-12.2% | Cc1ccc(-c2nnn3c2nc(N2CCC(C)CC2)c2ccccc23)cc1
-6.6% | Cc1cc(C)c(NC(=O)CSCc2nc3sc(C)c(C)c3c(=O)[nH]2)c(Cl)c1
-7.8% | COc1ccc(CCN2CC(C(=O)OCC(=O)N(C)CC(=O)Nc3ccccc3Cl)CC2=O)cc1OC (stereo not drawn)
2.4% | COCC(=O)NNC(=S)Nc1cccc(C)c1C
-17.1% | COc1ccccc1N=Cc1c(C)[nH]n(-c2ccc(C)cc2C)c1=O
-6.2% | C[C@H](N)c1nnc(SCc2ccc(Cl)cc2Cl)o1
0.4% | O=[N+]([O-])c1ccc(CSc2nc3ncc(Br)cc3[nH]2)cc1
-0.2% | CC(C)C[C@H](NC(=O)CNC(=O)[C@H](CCC(N)=O)NC(=O)[C@H](CC(C)C)NC(=O)[C@H](CC(C)C)NC(=O)[C@H](CCCNC(=N)N)NC(=O)[C@H](CCC(N)=O)NC(=O)[C@H](CC(C)C)NC(=O)[C@H](CCCNC(=N)N)NC(=O)[C@H](C)NC(=O)CNC(=O)[C@H](CCC(=O)O)NC(=O)[C@H](CCCNC(=N)N)NC(=O)[C@H](CC(C)C)NC(=O)[C@H](CCCNC(=N)N)NC(=O)[C@H](CO)NC(=O)[C@H](CC(C)C)NC(=O)[C@H](CCC(=O)O)NC(=O)[C@H](CO)NC(=O)[C@@H](NC(=O)[C@H](Cc1ccccc1)NC(=O)[C@@H](NC(=O)CNC(=O)[C@H](CC(=O)O)NC(=O)[C@H](CO)NC(=O)[C@@H](N)Cc1cnc[nH]1)[C@@H](C)O)[C@@H](C)O)C(=O)N[C@H](C(N)=O)C(C)C
-0.8% | COc1ccc(NC(=O)CN(C)C(=O)c2ccc(OCc3ccccc3)c(OC)c2)cc1
-13.6% | Cc1ccc(N2C(=O)c3ccccc3C2Nc2ccccc2F)nc1 (stereo not drawn)
-2.4% | Cc1cccc(C)c1NC(=S)NCc1ccncc1
7.2% | Cc1ccccc1-c1noc(-c2cccnc2NCc2ccco2)n1
10.2% | Cc1noc(C)c1COC(=O)CCOc1ccccc1

(listing goes on)
VDR inh | Structure
9.0% | COC(=O)c1cn(CC(=O)N2CCCCCC2)c2ccccc12
-13.6% | Cc1ccc(-n2[nH]c(=O)c3cccnc32)cc1
-1.0% | CC[C@H](C)[C@H](NC(=O)CNC(=O)[C@H](C)NC(=O)[C@H](C)N)C(=O)NCC(=O)N[C@H](C(=O)N[C@@H](CC(C)C)C(=O)N[C@H](C(=O)N[C@H](C(=O)O)C(C)C)[C@@H](C)O)[C@@H](C)CC
-0.2% | CCCCNC(=O)C(CC)Sc1nc2ccccc2c(=O)n1CCc1ccc(OC)c(OC)c1 (stereo not drawn)
-11.2% | O=C(NNC(=O)c1ccc(-n2cncn2)c([N+](=O)[O-])c1)c1ccc(Cl)cc1
2.1% | COc1ccc(OCC(=O)NCCCn2ccnc2)cc1
4.5% | COc1ccc(-n2c(SCC(=O)Nc3sc4c(c3C#N)CCCC4)nnc2-c2ccc(O)cc2)cc1
-23.7% | CCOc1ccc(OCC)c(NS(=O)(=O)c2cn(C)cn2)c1
6.2% | Cc1nnc(SCC(=O)Nc2nc3c(s2)CC(C)CC3)s1 (stereo not drawn)
8.3% | Cc1ccc(C)c(C(=O)c2c(N)c(-c3nc(-c4ccc5c(c4)OCO5)cs3)c3ccccn23)c1
1.4% | CC(C)(C)C(=O)Nc1nc(-c2ccc3c(c2)OCO3)cs1
-6.0% | O=c1c2ccccc2nc(COc2ccccc2)n1/N=C/c1cc([N+](=O)[O-])ccc1O
-15.5% | O=S(=O)(c1ccc(-c2ccon2)s1)N1CCN(CCN2CCOCC2)CC1
-23.0% | O=C(/C=C/c1ccco1)Nc1ccc(CN2CCOCC2)cc1
-6.7% | Cc1cc(NC(=O)/C=C/c2ccccc2)no1
1.9% | CC(C)(C)N(Cc1ccccc1)C(=O)CSc1ncn[nH]1

3 entries already listed, arranged by count of non-hydrogen atoms, smallest number first.
VDR inh | Structure
6.2% | Cc1nnc(SCC(=O)Nc2nc3c(s2)CC(C)CC3)s1 (stereo not drawn)
-23.0% | O=C(/C=C/c1ccco1)Nc1ccc(CN2CCOCC2)cc1
8.3% | Cc1ccc(C)c(C(=O)c2c(N)c(-c3nc(-c4ccc5c(c4)OCO5)cs3)c3ccccn23)c1

Later entries:
VDR inh | Structure
-5.9% | N#Cc1c(N)n(CCOC(=O)c2ccc(Cl)cc2)c2nc3ccccc3nc12
1.5% | N#CC1(NC(=O)CSc2nnc(COc3ccccc3F)n2N)CCCCC1
0.7% | CSc1ccc(C(=O)C2CCCN(Cc3cccn3-c3cccnc3)C2)cc1 (stereo not drawn)
-19.5%&-29.4% | COc1ccc(C2CC(c3ccccc3)Oc3ccc(C(C)(C)C)cc32)cc1 (stereo not drawn)
4.2% | Cc1ccc(C(=O)CC2(O)C(=O)N(CCc3ccccc3)c3ccc(Br)cc32)cc1 (stereo not drawn)
-4.7% | CCOC(=O)C1=C(C)NC(C)=C(C(=O)OCC)C1C1=COCCO1
13.1% | CC(C)c1ccccc1NC(=O)Nc1ccc(F)cc1F
18.7% | Cn1nc(C(=O)Nc2nc3ccc(S(C)(=O)=O)cc3s2)ccc1=O
1.8% | Cc1ccc(/C=N/NC(=O)CCSc2ccccc2)cc1
-8.8% | O=C(O)c1ccc(N/N=C/c2ccnc3ccccc23)cc1
33.8%[activator] | CC(C)n1cc(C(=O)N2CCCC(Nc3ccc(F)c(F)c3)C2)cn1 (stereo not drawn)
13.1%&-18.8% | CCOc1ccc(N(CC(=O)NCc2ccc(OC)cc2)S(=O)(=O)c2c(C)[nH]c(=O)[nH]c2=O)cc1
-0.8% | O=c1cc2n(c(=O)[nH]1)CCC1=C2CCCC1
0.4% | Nc1nonc1-n1nnc(C(=O)N/N=C/c2ccccc2F)c1-c1cccs1
-5.3% | Cc1c(NC(=O)c2ccc(Cl)nc2)cccc1-c1nc2cccnc2s1
1.7% | Cc1ccc(Cn2c(Sc3nnc(C)s3)nc3c2c(=O)[nH]c(=O)n3C)cc1

Some of the entries so far, bar-delimited:
SMILES | VDR inh
COc1ccccc1N=Cc1c(C)[nH]n(-c2ccc(C)cc2C)c1=O | -17.1%
CCOC(=O)n1c(=O)n(Cc2ccc(Cl)c(Cl)c2)c2ccccc21 | -1.2%
Nc1nc(SCC(=O)Nc2ccc3c(c2)CCC3)n[nH]1 | 5.9%
Cc1cccc(C)c1NC(=S)NCc1ccncc1 | -2.4%
Cc1ccc(N2C(=O)c3ccccc3C2Nc2ccccc2F)nc1 (stereo not drawn) | -13.6%
Nc1nonc1-n1nnc(C(=O)N/N=C/c2ccccc2F)c1-c1cccs1 | 0.4%

(continued)
VDR inh | Structure
-0.1% | O=C1c2ccccc2C(=O)C1c1ccc(F)cc1
1.2% | Cc1sc2ncnc(N3CCN(Cc4ccccc4)CC3)c2c1-c1ccccc1
9.3% | CCOC(=O)C1=C(C)Nc2ccccc2N=C1NC(=O)CCCN1C(=O)c2ccccc2C1=O
0.0% | COc1ccc(NC(=O)COC(=O)c2cc(S(=O)(=O)N3CCCC3)ccc2O)cc1
-9.5% | COc1ccc(-c2nc(NC(=O)c3c(C)noc3C)sc2C)cc1
-7.0% | CC1=C(C(=O)Nc2cc(C(=O)N(C)Cc3ccccc3)ccc2C)SCCO1
-6.6% | O=C(CN(c1cccc(C(F)(F)F)c1)S(=O)(=O)c1ccc(Cl)c([N+](=O)[O-])c1)NCc1ccccc1Cl
-2.0% | O=C(O)C1CN(C(=O)c2cccc(Br)c2)C1
-13.5% | Cn1c(Oc2ccc(F)cc2)nc2c1c(=O)n(Cc1ccccc1Cl)c(=O)n2C
6.5% | O=C(Nc1ccccc1)C1CCCN1S(=O)(=O)c1cccs1 (stereo not drawn)
9.9% | COC(=O)C1CN(C(=O)COc2ccccc2C)c2ccccc2O1 (stereo not drawn)
8.0% | Oc1cccc(-n2nnnc2SCc2ccccc2F)c1
-13.6% | Cc1c(C(=O)NNC(=O)c2ccccc2O)oc2ccc(Br)cc12
-1.7% | CC1=CC(=O)C(C(C)=Nc2cccc(Cl)c2)C(=O)O1 (stereo not drawn)
1.9% | CC(C)(C)CNC(CO)C12CC3CC(CC(C3)C1)C2 (stereo not drawn)
-15.3% | CC1CCN(CC(=O)NC(=O)NCc2ccccc2)CC1
9.2% | COc1cccc(C(=O)Nc2nnc(-c3cccs3)o2)c1
6.0% | Cc1nn(-c2ccccc2)c(Cl)c1/C=N/NC(=O)c1ccncc1
-9.3% | Cc1nc(NC(=O)c2ccccc2)sc1-c1csc(Nc2ccc(C(=O)O)cc2)n1
-3.6% | Cn1cccc1C(=O)Nc1ccc(Cl)c(S(=O)(=O)N2CCCCC2)c1
20.1% | N#Cc1c(-c2ccccc2)c(-c2ccccc2)nn(CC(=O)NNC(=O)Nc2ccccc2)c1=O
10.1% | CC1CCCCC1NC(=O)c1nn(C)c(=O)c2ccccc12 (stereo not drawn)
-13.9% | COc1ccc(CNC(=O)C(=O)c2cn(CC(=O)N3CCCC3)c3ccccc23)cc1
3.1% | Cn1c(=O)c2c(nc(NCCOc3ccc(F)cc3)n2C)n(C)c1=O
11.9% | COc1ccc(NC(=O)C2Cc3ccccc3CN2S(=O)(=O)c2ccccc2)cc1OC (stereo not drawn)

Source: PubChem (National Center for Advancing Translational Sciences (NCATS))
